Screening data: PubChem BioAssay, several laboratories
Autofluor counter: compound fluorescence in toxin protease inhibitor counterscreen. compound autofluorescence counterscreen, microsphere flow cytometry; active compounds read high. fluorescence intensity (concentration not given with the values). 3.1% of 360,000 active;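 active means at least 3 SD above the mean of all compounds, about 16000 in these data; inconclusive means too few beads counted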;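 further: 100 nL of 1 mM stock went into each well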
Mtb hypoxia inh: PubChem AID 1159583; M. tuberculosis hypoxia-regulated fluorescent reporter, fluorescence; 0.1% of 300,000 active; fluorescence inhibition, % (no concentration beside the values);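 active means 35 to 45% if threefold the growth effect, above 45% if 1.5-fold the growth effect; inactive means the rest, general growth blockers included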;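 further: wells of about 50 µL received 100 nL stock; 0% = vehicle wells and 100% = reference inhibitor wells; whole bacteria with a GFP reporter of the hypoxia response; strong numbers were not always called active; many hits fall short of the cut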
ugtP null kill: growth inhibition of ugtP-null S. aureus, primary screen, RN4220 ugtP deletion, OD600. 0.54% of 330,000 active. growth inhibition, % (concentration not given with the values). 16 h; some inactives read as strong as hits. AID 1259309, 2017;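 active means z-score under -3 and OD600 up to 0.15 on both plates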;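 further: plate controls were untreated wells for no effect and antibiotic for full effect; wells of about 80 µL received 100 nL stock; the first replicate is given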
PrP 5UTR inh: inhibition of PrP 5' UTR reporter expression; cell-based PrP 5' UTR mRNA reporter, plate reader; inhibition, % (test concentration not listed); 0.35% of 340,000 active;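 active means every replicate at 50% or more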;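 further: 0 = median of the neutral control wells; tested in H4 reporter cells; numbers are from one replicate; inactives centre near -14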
BJeLR lethal: MLPCN primary cell-based screen for lethality selective to Ras in HRASV12 cells; BJeLR (HRASV12) viability, CellTiter-Glo ATP luminescence, 48 h; reference of the scale not given here; inhibition, % (concentration not given with the values); 0.17% of 300,000 active; AID 1554, 2009;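 active means replicate mean above 50%; inconclusive means above 50% but judged a plate artefact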;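 further: 50 nL library stock added to about 25 µL; numbers are from one replicate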
RN4220 kill: growth inhibition of S. aureus RN4220, primary screen, OD600; AID 1259311, 2017; 16 h; inhibition, % (test concentration not listed); 0.33% of 330,000 active;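 active means z-score of -3 or lower and OD600 up to 0.18 on both plates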;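 further: plate controls were untreated cells for no effect and reference antibiotic for full effect; stock transfer was 100 nL into about 80 µL; one replicate is shown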
Mtb hypoxia inh growth: further read-out of Mtb hypoxia inh, marked with its call; growth inhibition, %; measured here: M. tuberculosis growth (absorbance);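 0% = vehicle and 100% = reference antibiotic; read after six days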
Numbers without * were called inactive; u = inconclusive; x = no result given; & = joins results of further samples.

SMILES	Autofluor counter	Mtb hypoxia inh	Mtb hypoxia inh growth	ugtP null kill	PrP 5UTR inh	BJeLR lethal	RN4220 kill
COc1cc2c(cc1/C=C1/NC(=O)N(c3ccccc3)C1=O)OCO2	1887	0	3	-2	-22	-3	4.2
Cc1cc(C)c(S(=O)(=O)c2ccccc2C(C)C)c(=O)[nH]1	3563	9	3	2	-15	-1	3.2
Cc1ccc(Cn2ccc(=O)c(OCc3ccccc3)c2C)cc1	3329	x	x	-3	-15	6	4.3
COc1ccc(OC)c(Nc2nc(C)nc3c2oc2ccccc23)c1	4030	-6	-3	-4	-9	-2	26
CSc1ccc(/C=C(\NC(=O)c2ccc(C)cc2)C(=O)Nc2cccc(C)c2)cc1	2662	7	7	0	0	2	5.7
CC(=O)c1cccc(NC(=O)CCNS(=O)(=O)c2cccc3nonc23)c1	2616	13	5	-2	-6	-3	3.5
O=C(C1CCC(Cn2c(=O)[nH]c3ccccc3c2=O)CC1)N1CCN(c2ccccc2)CC1 (centres undefined)	5365	-3	-6	8	-22	-2	3.0
O=C(NNC(=O)c1ccc2ccccc2c1)c1cccc(Cl)c1	3942	11	8	-11	-19	x	-1.5
O=C(Nc1ccc2c(c1)OCO2)c1cc(-c2cccc(O)c2)on1	6042	-23	1	-16	-20	1	-3.8
COc1ccc(-c2noc(C3CCCN(C(=O)c4ccccc4)C3)n2)cc1 (centres undefined)	4105	11	9	5	-33	1	12
Cc1ccc(N(Cc2ccc(C(=O)NCC3CCCO3)cc2)S(C)(=O)=O)cc1C (centres undefined)	2315	15	7	-5	-12	0	7.0
Cc1cccc(-c2nc(NCCCN3CCOCC3)c3ccccc3n2)c1	3666	x	x	-8	-10	2	4.4
O=c1[nH]c(O)c(C=NC2CCCCC2)c(=O)[nH]1	3857	9	6	3	-10	9	2.9
CCOC(=O)C1CCCN(C(=O)CN2CCN(Cc3ccc(Cl)cc3)C2=O)C1 (centres undefined)	x	x	x	3	x	-4	0.8
COc1ccc2c(c1)O/C(=C\c1ccccc1C)C2=O	3563	5	12	10	-22	-4	6.4
COCCn1cc(C(=O)NCc2cccs2)c2c3ccccc3n(C)c2c1=O	10190	8	10	-3	-18	-3	2.8
Cc1cccc(NC(=O)CSc2nnc(Cn3cnc4ccccc43)o2)c1	6925	-2	-2	17	-15	3	6.7
Cc1cc(=O)[nH]c(NN=Cc2cc(C)n(CC(F)(F)F)c2C)n1	x	6	2	-2	x	x	2.1
CCN(CC)S(=O)(=O)c1ccc(N/N=C/c2cc(OC)ccc2O)nc1	2136	x	x	x	24	26	x
Cc1cc2ccccn2c1C(=O)c1ccc(Cl)cc1	9754	0	-4	-10	-18	8	-3.5
Fc1ccc(-c2nnn3c2nc(NCc2ccccc2)c2ccccc23)cc1	3385	-3	-4	-5	-16	4	-0.1
CCc1nnc(NC(=O)c2cccc(C(=O)Nc3nnc(CC)s3)n2)s1	9532	13	10	-2	-14	-10	21
CC(Sc1nnc(Cc2ccccc2)n1C)C(=O)NC1CC1 (centres undefined)	5924	5	10	0	-10	x	-1.3
CC(=O)NC1C(Oc2ccc(C=O)cc2)OC(COC(C)=O)C(OC(C)=O)C1OC(C)=O (centres undefined)	4188	4	-3	6	-25	3	4.6

Whole records, looked up by structure. Order of screens: Autofluor counter | Mtb hypoxia inh | Mtb hypoxia inh growth | ugtP null kill | PrP 5UTR inh | BJeLR lethal | RN4220 kill
COCCn1cc(C(=O)NCc2cccs2)c2c3ccccc3n(C)c2c1=O is listed with 10190 | 8 | 10 | -3 | -18 | -3 | 2.8
Cc1cccc(NC(=O)CSc2nnc(Cn3cnc4ccccc43)o2)c1 is listed with 6925 | -2 | -2 | 17 | -15 | 3 | 6.7
COc1ccc2c(c1)O/C(=C\c1ccccc1C)C2=O is listed with 3563 | 5 | 12 | 10 | -22 | -4 | 6.4
CC(=O)NC1C(Oc2ccc(C=O)cc2)OC(COC(C)=O)C(OC(C)=O)C1OC(C)=O (centres undefined) is listed with 4188 | 4 | -3 | 6 | -25 | 3 | 4.6
O=c1[nH]c(O)c(C=NC2CCCCC2)c(=O)[nH]1 is listed with 3857 | 9 | 6 | 3 | -10 | 9 | 2.9

Continuation:
SMILES	Autofluor counter	Mtb hypoxia inh	Mtb hypoxia inh growth	ugtP null kill	PrP 5UTR inh	BJeLR lethal	RN4220 kill
COc1ccc(S(=O)(=O)N(CC(=O)N2CCOCC2)Cc2ccccc2)cc1	8118	-1	6	-1	-21	-7	4.6
COc1ccc(C2Nc3ccccc3C(=O)N2Cc2ccccc2)cc1CN1CCOCC1 (centres undefined)	5416	4	4	5	3	-21	2.6
Cc1nc2nc(NC(=O)c3ccco3)nn2c(C)c1Cl	5430	-3	3	9	-43	0	3.3
CCC(C)(C)n1nnnc1C(c1ccc2ncccc2c1)N1CCN(c2nc3ccccc3s2)CC1 (centres undefined)	7399	-4	12	-7	-12	6	-4.1
Cc1cc(C)n(-c2ncnc3sc4c(c23)CCCC4)n1	9145	3	-4	0	-28	-1	-2.4
Cc1c(C(=O)OCC(=O)N2CCCC2=O)oc2ccccc12	u	5	5	4	-39	-5	3.4
N#Cc1c(N2CCCC2)nc(N)c2c(N)nc(N3CCCC3)cc12	x	7	16	-23	-57	11	8.0
O=P(O)(CCc1ccncc1)CN1CCCCC1	8730	-1	0	-2	3	2	-4.9
COc1ccc(-c2csc(NC(=O)C3CSC4(C)CCC(=O)N34)n2)cc1 (centres undefined)	3515	10	6	4	-12	x	4.4
COc1ccc(N2CC(C(=O)Nc3ccccc3N3CCCC3)CC2=O)c(OC)c1 (centres undefined)	4593	6	1	0	-57	20	2.0
O=C(COC(=O)CNS(=O)(=O)c1ccc(Br)cc1Cl)Nc1ccc(N2CCOCC2)cc1	u	x	x	x	2	-3	x
NC(=O)c1c(NC(=O)CCCC(=O)O)sc2c1CCCCCC2	2094	-17	-5	1	-23	13	-2.2
Cc1ccc(C(=O)O/N=C(\c2ccccc2)c2cccnc2)cc1	2431	x	x	x	-18	2	x
O=C(Nc1ccc(F)cc1F)c1csc(-c2cccs2)n1	4348	18	11	6	-115	12	-7.9
O=C(Nc1c(C(=O)O)[nH]c2ccc(F)cc12)c1cccc(C(F)(F)F)c1	4009	-17	-3	-12	-5	-3	0.6
O=C(Nc1ccc(Cl)c(C(F)(F)F)c1)C1CCCN(S(=O)(=O)c2cnc[nH]2)C1 (centres undefined)	20180*	-3	8	-6	-6	5	5.7
Cc1ccc(C(=O)Nc2ccccc2-c2ccccc2)o1	2864	x	x	-2	-9	6	-1.6
CC(CCc1ccccc1)NS(=O)(=O)c1ccccc1Cl (centres undefined)	3835	-1	7	1	-2	2	3.2
COc1ccc(NC(=O)CC(C)=NNC(=O)C(=O)Nc2cccc(Cl)c2C)c(OC)c1	x	7	7	6	x	x	2.7
Oc1ccc(/C=N/Nc2nc(-c3ccc(Cl)cc3)cc(C(F)(F)F)n2)cc1	1983	x	x	x	2	-9	x
CC(Cc1ccccc1)=NNC(=O)CNC(=O)c1cccc(Br)c1	x	-10	-3	4	x	x	0.3
CC(=O)n1cc([C@@H]2C=C(C(=O)NCc3ccccc3)O[C@H](OCCCCO)C2)c2ccccc21	3906	x	x	x	-22	-2	x
CC(C)Oc1ccc(CC2(CCc3ccncc3)C(=O)NC(=O)NC2=O)cc1	5715	-13	7	0	-15	0	0.5
CCC(C)Sc1nc(O)c(Cc2ccccc2)c(=O)[nH]1 (centres undefined)	3914	3	4	9	-1	-9	12
O=C(CC(c1ccccc1)c1cc(Br)ccc1O)NCCN1CCOCC1 (centres undefined)	4074	x	x	1	-2	0	-2.8
CCN(C(=O)COC(=O)CCC(=O)c1ccc(C)cc1)c1c(N)n(Cc2ccccc2)c(=O)[nH]c1=O	3281	7	10	-3	-22	x	-3.1
Cc1ccc(C)c(NC(=O)Nc2ccc3c(c2)OCO3)c1	6145	-2	1	3	-29	-10	1.3
CCN(CC)c1ccc(C2C3CCCCC3(O)CCN2CC(=O)Nc2ccccc2)cc1 (centres undefined)	9812	6	7	-9	-17	-5	7.7
Cc1cccc2c3nc4ccccc4nc3n(C)c12	4110	20	10	-9	-16	-2	0.2
O=c1cc(-c2ccccc2)cc(-c2ccccc2)n1CCO	3838	11	6	6	-16	-13	7.1
CCOC(=O)C1(Cc2cccc(OC)c2)CCN(Cc2ccccc2)CC1	2253	5	-3	5	-11	-14	2.1
C[C@H]1CCC[C@]2(C)C[C@H]3OC(=O)C(CN4CCCCCC4)[C@H]3C=C12 (some centres undefined)	4475	17	10	9	-1	18	7.3
NCC(CC(=O)O)C1CCCCC1 (centres undefined)	11015	-2	-1	0	-20	-3	-1.7
N#Cc1cc2c(nc1SCC(=O)N1CCCCC1)CCCC2	3982	x	x	2	-32	-3	0.6
O=C(O)C(c1ccccc1)C(O)C1CC=CCC1 (centres undefined)	3817	10	8	0	-3	x	3.5
CCn1c(SCC#N)nc2cc(S(=O)(=O)N3CCOCC3)ccc21	3977	13	4	15	3	-4	1.2
Cc1ccc(N(Cc2cc3cc(C)ccc3[nH]c2=O)C(=O)c2cccs2)cc1	2232	13	-5	-3	5	-7	1.4
CCOC(=O)C1=C(C)Nc2nc(SC)nn2C1c1ccc(C(=O)OC)cc1 (centres undefined)	9712	4	9	-3	0	-15	-2.9
CCCOC(=O)c1ccc(NC(=O)C2C3C=CC(O3)C2C(=O)O)cc1 (centres undefined)	2602	x	x	x	-10	2	x
CC(=O)c1ccc(NC(=O)C(C)N(C)CC(=O)Nc2cccc(F)c2)cc1 (centres undefined)	3326	1	2	1	-5	x	0.0
O=C(CSC1=NS(=O)(=O)c2cc(Cl)ccc2N1)c1ccc(Cl)cc1	5467	7	-8	1	-14	-6	1.8
CC1CN(c2cc(=O)n(Cc3ccc(F)cc3)c(=O)[nH]2)CC(C)O1 (centres undefined)	6493	1	5	0	-25	-5	-7.0
O=C(O)c1ccc(N/N=C/c2ccc(C(F)(F)F)cc2)cc1	4530	x	x	x	20	-12	x
Cc1cc(NC(=O)c2c(Cl)cnn2C)no1	4359	x	x	0	-8	-4	2.1
CCC(=O)NC(=S)Nc1ccc(OC)cc1OC	2438	4	0	8	-13	-7	4.9
Cc1ccc(Oc2cc(NC(=O)CCCn3nc(C)c([N+](=O)[O-])c3C)cc([N+](=O)[O-])c2)cc1	9404	10	18	-30	-16	9	-4.1
S=C(NCC1CCCO1)N1CCN(c2nc(-c3ccccc3)cs2)CC1 (centres undefined)	5055	3	9	7	-30	11	-8.0
CCn1cc(C(=O)NC2CCCCC2)c(=O)c2ccc(C)nc21	4622	7	20	1	-5	-2	-5.3
C=CCNC(=S)NNC(=O)C(CCCC)CC(O)COCC(C)C (centres undefined)	3745	15	31	-2	-8	4	3.7
COc1ccc(-c2ccc3oc(-c4ccsc4)c(-c4ccc(OC)cc4)c3c2)cc1	3708	14	-1	0	9	-4	3.7
CC(C)(C)N1C(=O)[C@H]2[C@@H](c3ccc(Br)cc3)N3C(=O)N(c4cccc(Br)c4)C(=O)[C@@]3(Cc3ccccc3)[C@H]2C1=O	3552	x	x	x	5	-10	x
Cc1cccc(C(=O)Nc2ccc(C(=O)N/N=C/c3cccnc3)cc2)c1	4342	x	x	x	-13	-5	x
O=[N+]([O-])c1ccc(Cl)cc1Sc1cccc2cccnc12	2535	-2	-3	-9	-3	-12	-17
Cc1[nH]n(-c2ccccc2)c(=O)c1C=NNc1nncc(-c2ccccc2)n1	x	-9	9	98*	x	x	96*
Cc1nc(CN2CCN(C(=O)c3ccc(C(C)(C)C)cc3)CC2)cs1	4716	4	13	-9	-12	-6	-1.8
Cc1nc2nc[nH]n2c(=O)c1NC(=O)CC12CC3CC(CC(C3)C1)C2	2849&5015	11	9	4&-7	-14&-24	0&9	3.4&1.1
Cc1ccc2cc(C)c3nnc(SCc4ccc(C(=O)O)cc4)n3c2c1C	x	-8	-9	-1	-16	-1	2.7
CC1CN(c2cc(=O)n(-c3ccccc3)c(=O)[nH]2)CC(C)O1 (centres undefined)	5528	1	14	-3	0	8	-15
Cc1ccc(S(=O)(=O)Nc2cc(-c3ccc(Cl)cc3)nn2C)cc1	3888	-5	-1	-24	x	8	2.0
Cc1no[n+]([O-])c1COc1ccc(C=Nn2nnnc2N)cc1	x	-9	-2	-6	x	x	-2.6
